Compound activity (PubChem BioAssay)
Rango complex inh: qHTS Assay for Inhibitors of Rango (Ran-regulated importin-beta cargo) - Importin beta complex formation | Importin subunit beta-1 (Homo sapiens), Q14974 | Rango CFP/YFP FRET sensor + importin beta, 45 min | Potency, µM (highest dose often 92.2 µM), for the others: top-dose inhibition of complex formation | 340,000 tested, 0.031% active; active = rising FRET ratio curve, often small or poorly fitted; inconclusive = mostly compound fluorescence or quenching in the first reads; inactive = flat curves in all reads;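 note: potency is the fitted concentration of half-maximal effect; 0% = DMSO wells and 100% = buffer wells lacking importin beta; nearly all actives have a fitted effect of over 15% in size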
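FRET biosensor Rango (snurportin 1 IBB between N-terminal EYFP and C-terminal Cerulean), 50 nM in PBS/1 mM DTT/0.02% Tween-20/0.1% BSA, preincubated 5 min RT with compound; 0.125 microM importin beta added, 45 min RT, CFP/YFP FRET ratio read.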
Rango release inh: qHTS Assay for Inhibitors of RanGTP induced Rango (Ran-regulated importin-beta cargo) - Importin beta complex dissociation | Snurportin-1 (Homo sapiens) + GTP-binding nuclear protein Ran (Homo sapiens) + Importin … | Biochemical FRET Rango-importin beta, RanGTP-induced dissociation | Potency, µM (titrated, usually from 46.1 µM), inactives show top-dose activity change, negative = inhibition | 340,000 tested, 0.071% active | AID 540253, 2011; active means falling FRET ratio curve, often poorly fitted, with flat reads before Ran was added; inconclusive means other falling curves, or compound fluorescence or quenching; inactive means flat or rising ratio curve;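 note: potency is the fitted concentration of half-maximal effect; % of control where 0% means no effect; nearly all actives have a fitted effect of over 45% in size; -100% = wells without RanGTP and RCC1; the record marks most hits as doubtful in a second field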
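Quantitative HTS using a FRET biosensor: 0.1 uM Rango, 0.25 uM importin beta, 0.6 uM Ran, 2 mM GTP, 0.2 uM RCC1 final, PBS with DTT, Tween-20 and BSA. Post-read taken 45 min after Ran addition.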
GLA inh pH 4.5: qHTS Assay for Inhibitors of Human alpha-Galactosidase at pH 4.5. AID 1467, 2008. Alpha-galactosidase A (Homo sapiens), P06280. activity change, negative = inhibition, % at 105 µM. 230,000 tested, under 10 active. purified enzyme, 4-MU-alpha-Gal fluorescence, pH 4.5; inconclusive = small, poorly fitted or top-dose-only inhibition, or a rising curve; inactive = flat fitted curve, though single readings scatter; no compound was filed as active;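 note: 0% = full activity with enzyme and -100% = basal without enzyme; dose as in the result columns while the protocol names 77 µM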
Target sequence (P06280 whole entry, looked up): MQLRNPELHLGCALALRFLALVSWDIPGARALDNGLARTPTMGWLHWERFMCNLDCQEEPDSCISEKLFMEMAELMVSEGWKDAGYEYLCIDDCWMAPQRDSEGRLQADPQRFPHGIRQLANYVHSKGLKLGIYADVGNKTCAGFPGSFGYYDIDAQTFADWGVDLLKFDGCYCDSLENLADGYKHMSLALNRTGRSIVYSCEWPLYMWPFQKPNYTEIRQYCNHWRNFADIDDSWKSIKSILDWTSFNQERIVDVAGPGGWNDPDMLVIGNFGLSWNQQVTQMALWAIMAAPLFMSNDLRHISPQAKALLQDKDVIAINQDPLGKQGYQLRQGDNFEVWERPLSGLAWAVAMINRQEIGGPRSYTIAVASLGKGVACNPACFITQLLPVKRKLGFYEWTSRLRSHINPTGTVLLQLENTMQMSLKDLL
miR-21 FLuc: qHTS Assay for Modulators of miRNAs and/orActivators of miR-21; HeLa miR-21 FLuc reporter, luciferase, 48 h; Potency, µM (top dose mostly 38.3 µM), for inactives: top-dose reporter change, positive = more light; 340,000 tested, under 10 active; AID 2288, 2010; active = well fitted rising curve with a large enough effect; inconclusive = small, poorly fitted or top-dose-only effect; inactive = no such curve, though single readings can be large or run the other way;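 note: % of control where 0% means no effect; miR-21 action dims this reporter so a rising signal means less miR-21 action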
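Using DMEM plus 10% FBS, HeLa miR-21-FLuc cells are incubated with test compounds (final up to about 40uM) for 48 hours; firefly luciferase signal is then imaged following reagent-mediated lysis.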
Numbers without * were called inactive; ? = inconclusive; . = not tested or not shown; & = joins results of further samples. A portion of the library; count on the stated rates, not on these rows.

Rango complex inh	Rango release inh	GLA inh pH 4.5	miR-21 FLuc	Molecule
-6.5%	23%	-3	-16%	CC1=NN(c2ccccc2)C(=O)C1c1ccccc1 (stereo unspecified)
-2.6%	1%	-2	2%	O=C(CN1CCN(c2ccc(O)cc2)CC1)Nc1ccc2c(c1)OCCO2
4.0%	-6%	4	-9%	Cn1c(CCCOc2ccc(Cl)cc2Cl)nnc1SCC(=O)Nc1cccc(F)c1
-1.8%	0%	.	-7%	Nc1nc(Nc2ccccc2F)sc1C(=O)c1ccccc1
0.8%	-10%	1	-8%	N#CC1=C(N)Oc2n[nH]c(-c3cccs3)c2C1c1cccs1 (stereo unspecified)
0.2%	-6%	-8	9%	CN1/C(=C\C(=O)COC(=O)c2ccc([N+](=O)[O-])o2)C(C)(C)c2ccccc21
-3.6%	1%	3	-2%	CCCCCCc1ccc(OCC(=O)OC)cc1OCC(=O)OC
-1.0%	-22%	-3	-4%	CC(=O)NN1C(=O)/C(=C\c2ccccc2)SC1=S
5.0%	-9%	.	.	O=C(Cc1ccc(NS(=O)(=O)c2cccc(C(F)(F)F)c2)cc1)NCCN1CCOCC1
-1.6%	12%	.	0%	CN(CC(=O)Nc1ccc(F)c(F)c1F)C(=O)CN1C(=O)C2CCCCC2C1=O (stereo unspecified)
2.1%	3%	-3	-13%	Cc1ccc(NC(=O)N/C=C/c2ccco2)cc1
0.5%	0%	14	-7%	Cc1ccc(C2CC(c3ccccc3)=NN2C(=O)CSc2nnc(-c3ccc(Cl)cc3)o2)o1 (stereo unspecified)
-0.2%	1%	-2	-3%	N#C/C(C(=S)Nc1ccccc1)=C1/NN=C(N2CCOCC2)N1c1ccccc1
-2.0%	0%	2	-1%	Cc1ccccc1C1N(c2nccs2)C(=O)C2CCCN21 (stereo unspecified)
-1.1%	-3%	8	-3%	Cc1ccc(C(=O)NC(NCc2ccccc2)C(Cl)(Cl)Cl)cc1 (stereo unspecified)
-1.0%	-9%	-4	-2%	CSc1nnc2c3cc(C)ccc3n(Cc3ccccc3)c2n1
?	?	0	.	CCC(=O)OC1(C)C(=O)C=C2C=C(C3CC3)OC=C2C1=O (stereo unspecified)
3.4%	9%	-9	-12%	O=C(CSc1nnc(-c2ccccc2Cl)o1)Oc1ccc(Br)cc1
?	8%	6	0%	O=C(OCCN1CCCC1=O)c1cncc(Br)c1
-1.3%	-10%	.	-13%	O=C(O)CN1C(=O)/C(=C\c2cc(Br)ccc2OCc2ccccc2Cl)SC1=S
-2.6%	-1%	4	-20%	C(=N\N1CCN(Cc2ccccc2)CC1)/c1cccnc1
?	-12%	10	1%	COC(=O)C1=C(C)Nc2c(c(=O)n(C)c(=O)n2C)C1c1ccncc1 (stereo unspecified)
?	-3%	-11	20%	Cc1nnc(N/N=C/c2cc([N+](=O)[O-])c(N3CCC(C)CC3)cc2N2CCC(C)CC2)n1N
1.9%	0%	-7	-2%	CN1C(=O)CC(C(=O)Nc2ccc(F)cc2)SC1=Nc1ccc2c(c1)OCO2 (stereo unspecified)
2.1%	-6%	.	.	O=C(C[n+]1ccccc1)NNc1ccccc1
0.0%	-12%	.	4%	C=CCNC(=O)C(=O)NCC(c1ccc2c(c1)OCO2)N1CCN(c2ccc(F)cc2)CC1 (stereo unspecified)
-1.2%	-1%	.	-4%	CC(C)OC(=O)c1c(NC(=O)C2CC=CCC2C(=O)O)sc2c1CCCCC2 (stereo unspecified)
-0.5%	-6%	-8	-3%	O=C1NC2(CCCCC2)C(=O)N1CCS(=O)(=O)Oc1ccc(Br)cc1
-2.1%	-5%	3	-3%	Oc1cccc(C=NCc2ccccc2)c1
0.8%	-5%	1&-15&-6&-3	0%&0%	CN1[C@@H](CC(=O)c2ccccc2)CCC[C@H]1C[C@H](O)c1ccccc1

Part of the list above in order of heavy-atom count, falling:
Rango complex inh	Rango release inh	GLA inh pH 4.5	miR-21 FLuc	Molecule
?	-3%	-11	20%	Cc1nnc(N/N=C/c2cc([N+](=O)[O-])c(N3CCC(C)CC3)cc2N2CCC(C)CC2)n1N
0.8%	-5%	1&-15&-6&-3	0%&0%	CN1[C@@H](CC(=O)c2ccccc2)CCC[C@H]1C[C@H](O)c1ccccc1
3.4%	9%	-9	-12%	O=C(CSc1nnc(-c2ccccc2Cl)o1)Oc1ccc(Br)cc1
-1.0%	-9%	-4	-2%	CSc1nnc2c3cc(C)ccc3n(Cc3ccccc3)c2n1
?	8%	6	0%	O=C(OCCN1CCCC1=O)c1cncc(Br)c1

More entries.
Rango complex inh	Rango release inh	GLA inh pH 4.5	miR-21 FLuc	Molecule
-0.3%	2%	-5	-4%	O=C(CSc1nc2ccccc2c(=O)n1-c1ccccc1)NC(=O)CN1CCCC1=O
4.7%	8%	.	0%	CCCCc1cc(=O)oc2cc(OCC(=O)N3CCC(C(=O)O)(c4ccccc4)CC3)ccc12
-2.1%	7%	3	-20%	Cn1ccnc1C(=O)c1cc(=O)c2ccccc2o1
4.5%	1%	.	.	O=C(O)CC1(CC(=O)Nc2ccccc2Br)CCCC1
1.3%	2%	.	7%	CCc1ccc(CN2CCC(C(=O)Nc3cccc(-c4nnc(C)s4)c3)CC2)o1
0.7%	-3%	-3	1%	Cc1cccc(N2CCN(C(=O)c3cc4n(n3)C(C(F)(F)F)CC(c3ccco3)N4)CC2)c1C (stereo unspecified)
4.8%	0%	.	.	CCN1C[C@@H]2[C@@H]3C(=O)N(C)C(=O)[C@@H]3[C@](CC)(C(=O)OC)N2C1=NC
?	-12%	-13	-1%	COc1cc(/C=N/Nc2ccc(S(N)(=O)=O)cc2[N+](=O)[O-])cc(OC)c1O
0.5%	3%	-3	-2%	CCOC(=O)CNC(=O)c1nn(-c2cccc(OC)c2)c(=O)c2ccccc12
-4.5%	-20%	-4	?	N#CC(C#N)=c1ccc2c(c1)NC1(CCCCC1)N=2
0.2%	-1%	-1	-3%	CCOC(=O)c1nn(-c2ccccc2C)c(=O)c(C#N)c1C
-0.3%	-10%	.	5%	Cc1cccc(-n2ncc3c2CCCC3NC(=O)C2=CC(=O)CC(C)(C)O2)c1C (stereo unspecified)
-4.9%	3%	-7	7%	Cn1nccc1NC(=O)NC(=O)c1c(Cl)cccc1Cl
?	-25%	.	3%	CCOc1cc(-c2cc(-c3ccc(NC(C)=O)cc3)nc(N)c2C#N)ccc1O
-1.4%	3%	.	.	O=C(CN1CCN(S(=O)(=O)c2cccc(Cl)c2)CC1)N1CCCCC1
0.1%	1%	4	17%	N#Cc1cccc(C#N)c1Oc1ccc(S(=O)(=O)Nc2ccc(Cl)cc2)cc1
0.0%	7%	.	.	CC1(C)C(=O)Nc2ccccc2N1C(=O)COC(=O)CNS(=O)(=O)c1ccc(F)c(F)c1F
1.9%	-1%	-4	-2%	COc1cc2c(cc1OC)C[N+](C)(C)CC2
6.3%	5%	.	.	CC1CN(CC(O)c2ccc(Br)cc2)CCO1 (stereo unspecified)
?	5%	.	0%	CCn1cc(S(=O)(=O)c2ccc(OC)cc2)c(=O)c2cc(F)c(N3CCN(C)CC3)cc21
-0.2%	-4%	-13	-4%	O=C(NCc1cccnc1)c1ccc(N2CCOCC2)c([N+](=O)[O-])c1
3.1%	1%	-2	-19%	NNC(=O)c1ccc(OCC2CC(c3ccc(Cl)cc3)=NO2)cc1 (stereo unspecified)
-3.5%	1%	4	-33%	CC(C)(C)c1ccc(C(=O)NNC(=O)C(=O)N2CCCCC2)cc1
?	?	.	.	Cn1c2c(c3ccccc31)CCN=C2c1ccccc1
?	?	-8	-4%	CCCN(CCC)S(=O)(=O)c1ccc(C(=O)OCCN2C(=O)c3cccc4c(N5CCOCC5)ccc(c34)C2=O)cc1
2.1%	-18%	5	7%	CC1(c2ccccc2)CC(C)(C)N2C(=O)C(=O)c3cccc1c32 (stereo unspecified)
-3.5%	2%	.	.	Cc1ccc(C)c(N2CCN(C(=O)CCc3nc(-c4ccccc4Br)no3)CC2)c1
-3.9%	14%	.	.	C1CN(CC2COC(CN3CCOCC3)CO2)CCO1 (stereo unspecified)
0.0%	-13%	6	-2%	CCN(C(=O)CN1CCN(c2ccccc2)CC1)c1c(N)n(Cc2ccccc2)c(=O)[nH]c1=O
8.0%	1%	-2	-1%	CCOC(=O)N1CCN(C(=O)c2cn(CC)c3ccc(S(=O)(=O)N4CCC(C)CC4)cc3c2=O)CC1
0.0%	-8%	15	-4%	C=CCn1cc(-c2cccc(Cl)c2)cc(C#N)c1=O
9.6%	8%	.	-2%	CN1C(=O)C(c2ccccc2[N+](=O)[O-])C(=O)c2ccccc21 (stereo unspecified)
-0.6%	1%	.	2%	CCOc1ccc(NC(=O)CCS(=O)(=O)c2ccc(C)cc2)cc1
7.2%	?	.	-55%	COc1ccc2oc(C(=O)NCC3CCCO3)c(C)c2c1 (stereo unspecified)
-0.7%	0%	-1	0%	CCOC(=O)C1CCN(c2cc(=O)n(C3CCCCC3)c(=O)[nH]2)CC1
3.8%	-22%	-11	-6%	N#CC1=C(N)Oc2n[nH]c(-c3cccs3)c2C1c1ccco1 (stereo unspecified)
-4.0%	10%	.	-1%	COc1ccc(CNc2cc(C)ccn2)c(O)c1
?	-2%	-4	1%	CC1S/C(=C(\C#N)C(=O)NCc2ccco2)N(Cc2ccco2)C1=O (stereo unspecified)
-0.3%	-9%	-9	3%	Cc1cc(C)c(NC(=O)CSc2nnc(-c3ccccn3)n2N)c(Cl)c1
0.6%	0%	5	0%	O=C(CSc1cn(CC(=O)N2CCCCC2)c2ccccc12)NCC1CCCO1 (stereo unspecified)
4.1%	11%	1	6%	Cc1nc(C(=O)NCc2ccccc2)sc1C1(C)CC(c2ccccc2)=NO1 (stereo unspecified)
-2.9%	2%	0	-12%	Cc1ccc(C(=O)OC2CCS(=O)(=O)c3sccc32)cc1 (stereo unspecified)
0.1%	-3%	6	-3%	COc1ccc(-c2nc3c4ccccc4ccn3c2C=O)cc1
3.0%	17%	.	-1%	O=C(O)c1cc([N+](=O)[O-])c(Sc2nc3ccccc3[nH]2)c([N+](=O)[O-])c1
-3.8%	-18%	.	?	COc1ccccc1/C=C1\SC(=S)N(CCC(=O)NCCCn2ccnc2)C1=O
0.1%	0%	6	-1%	COc1ccc(OC)c(C2C(C(=O)Nc3ccc(F)cc3)=C(C)Nc3nc(CCCO)nn32)c1 (stereo unspecified)
-2.9%	-23%	?	0%	COc1cc2ccc(=O)oc2cc1OCC(O)C(C)(C)O (stereo unspecified)
-1.6%	-4%	.	2%	O=S(=O)(c1ccc(F)cc1)N1CCC(n2cnc3ccccc32)CC1
-2.6%	39%	.	.	CC(C)N(C(=O)[C@H]1C[C@H](CC(=O)NCCC2=CCCCC2)C(=O)N2CCc3c([nH]c4ccc(Cl)cc34)[C@]12C)C(C)C
5.7%	-4%	-4	-10%	NC(=O)CC(NC(=O)Cc1ccc(Cl)cc1)c1ccc(NCC2CC2)c([N+](=O)[O-])c1 (stereo unspecified)

Full records, quoted from the list. Screens in order: Rango complex inh | Rango release inh | GLA inh pH 4.5 | miR-21 FLuc
Results for `O=S(=O)(c1ccc(F)cc1)N1CCC(n2cnc3ccccc32)CC1` → -1.6% | -4% | . | 2%
Results for `CC(C)N(C(=O)[C@H]1C[C@H](CC(=O)NCCC2=CCCCC2)C(=O)N2CCc3c([nH]c4ccc(Cl)cc34)[C@]12C)C(C)C` → -2.6% | 39% | . | .
